# AmpC inh no det: Promiscuous and Specific Inhibitors of AmpC Beta-Lactamase (assay without detergent). AID 585, 2007. AmpC nitrocefin hydrolysis, absorbance 480 nm, no detergent; potencies from a single point are estimates. actives 1.8% (n = 71,000). Potency, µM (series often up to 28.7 µM), for the others: at the highest dose activity change, negative = inhibition; active = falling curve, for most hits resting on a single point; inconclusive = weak or doubtful change; inactive = flat or rising curve; note: % of control where 0% means no effect; about half of the hits show no inhibition at the top dose; a quarter of the inactives give rising signals
# Target sequence (P00811 whole entry, looked up): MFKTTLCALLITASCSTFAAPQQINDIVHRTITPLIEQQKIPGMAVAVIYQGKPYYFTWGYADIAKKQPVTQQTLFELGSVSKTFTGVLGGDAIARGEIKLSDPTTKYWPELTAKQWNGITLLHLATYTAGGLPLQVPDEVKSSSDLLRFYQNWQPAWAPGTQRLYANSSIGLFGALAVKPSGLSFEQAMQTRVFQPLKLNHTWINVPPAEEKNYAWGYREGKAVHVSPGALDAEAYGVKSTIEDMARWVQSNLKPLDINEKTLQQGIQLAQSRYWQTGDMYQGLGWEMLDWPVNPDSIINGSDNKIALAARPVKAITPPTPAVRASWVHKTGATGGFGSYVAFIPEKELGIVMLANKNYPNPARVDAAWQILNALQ
#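 Enzyme, pH 7.0 phosphate. Compound titrations were pre-incubated with AmpC for 15 min at room temperature before nitrocefin (stock 800 uM) addition; product formation was recorded at 480 nm every 20 s for 4 min.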
# Starred values were filed as active, the others as inactive; u = inconclusive; [ ] = dose if it differs, or a comment. Potency is the fitted concentration of half-maximal effect.
SMILES,AmpC inh no det
Cc1ccc(S(=O)(=O)N(C)CCCC(=O)NCc2ccc3c(c2)OCO3)cc1,7.9%
CCOc1ccccc1N1CCN(S(=O)(=O)c2cccc3nsnc23)CC1,43.1%
CS(=O)(=O)N(Cc1ccco1)CC(O)Cn1c2ccccc2c2ccccc21 (stereo not drawn),87.0%
CCOc1ccc(S(=O)(=O)NCCC(=O)OC(C)C(=O)N2CCc3ccccc32)cc1 (stereo not drawn),68.6%
CCn1c(NC(=O)Nc2ccccc2OC)nc2ccccc21,-2.1%
CCCCn1c(=O)[nH]c(=O)c2c1nc(-c1ccncc1)n2CCOC,-3.2%
CN1CCN(c2ncc3nc(-c4ccc(Cl)cc4)c(=O)n(Cc4cccs4)c3n2)CC1,89.6%
COc1ccc(C[C@H]2NC[C@H](O)[C@@H]2OC(C)=O)cc1,14.7%
O=C(CN1CCN(Cc2ccc3c(c2)OCO3)CC1)N1CCc2[nH]c3ccccc3c2C1,134.8%
CCOC(=O)c1cnn(-c2nc(CC)nc3sc4c(c23)CCC4)c1N,15.3%
Cc1ccc(S(=O)(=O)N(C)CC(=O)N2CCc3ccccc32)cc1,8.2%
CC(C)c1nnc(NC(=O)CCC(=O)N2CCN(C3CCCCC3)CC2)s1,u
Cc1c(NC(=O)CCN2C(=O)c3ccccc3C2=O)c(=O)n(-c2ccccc2)n1C,-4.3%
COc1ccc(OCC(=O)Nc2cccc(C(C)=O)c2)cc1,-4.7%
COC(=O)c1ccccc1NC(=O)NCc1ccccn1,1.2%
CC(C)(C)NC(=O)c1ccc(NC(=O)C2COc3ccccc3O2)cc1 (stereo not drawn),7.7%
CCOC(=O)N1CCN(C(=O)CSc2nc3c(c(=O)n2-c2ccccc2OC)SCC3)CC1,46.3%
CCOC(=O)c1cccc(NC(=O)CCS(=O)(=O)c2cccc3nsnc23)c1,-5.5%
O=S(CC(O)COCc1ccc(Cl)cc1)c1ccccn1 (stereo not drawn),1.3%
Cc1c(NC(=O)CC2CC(C)OC2=O)c(=O)n(-c2ccccc2)n1C (stereo not drawn),-7.8%
C=CCn1c(COc2ccc(Cl)cc2)nnc1SCC(=O)NCC(=O)OCC,68.0%
CN(C(=O)COC(=O)c1nc(-c2ccccc2)n(-c2ccccc2)n1)C1CCS(=O)(=O)C1 (stereo not drawn),34.8%
CCOC(=O)C1C(=O)CC(C)(O)C(C(=O)OCC)C1c1cccs1 (stereo not drawn),13.8%
CC(=O)Nc1ccc(SCC(=O)c2cc(C)n(Cc3cccs3)c2C)cc1,34.6%
COc1ccc2[nH]c(=O)c(C(c3nnnn3C(C)(C)C)N(Cc3ccco3)CC3CCCO3)cc2c1 (stereo not drawn),58.5%
O=C(NCc1ccco1)c1cccc(-c2nnc(-c3ccccc3)o2)c1,16.2%
NCCCC[C@H](N[C@@H](CCc1ccccc1)C(=O)O)C(=O)N1CCC[C@H]1C(=O)O,3.3%[12.8 µM]
CC(C)COC(=O)C1C2C=CC3(CN(C(C)c4ccc(Br)cc4)C(=O)C13)O2 (stereo not drawn),94.8%
O=C(NCCN1CCN(c2ccccc2)CC1)c1cccn2c(=O)c3cc(Cl)ccc3nc12,85.5%
Cc1ccccc1N1CCN(c2ncnc3c2cnn3Cc2ccc(Cl)cc2)CC1,-8.2%

# Part of the list above, with tabs.
smiles	AmpC inh no det
CS(=O)(=O)N(Cc1ccco1)CC(O)Cn1c2ccccc2c2ccccc21 (stereo not drawn)	87.0%
C=CCn1c(COc2ccc(Cl)cc2)nnc1SCC(=O)NCC(=O)OCC	68.0%
O=S(CC(O)COCc1ccc(Cl)cc1)c1ccccn1 (stereo not drawn)	1.3%
CC(C)c1nnc(NC(=O)CCC(=O)N2CCN(C3CCCCC3)CC2)s1	u
CN(C(=O)COC(=O)c1nc(-c2ccccc2)n(-c2ccccc2)n1)C1CCS(=O)(=O)C1 (stereo not drawn)	34.8%
CC(=O)Nc1ccc(SCC(=O)c2cc(C)n(Cc3cccs3)c2C)cc1	34.6%
COc1ccc(C[C@H]2NC[C@H](O)[C@@H]2OC(C)=O)cc1	14.7%

# (more compounds)
SMILES,AmpC inh no det
O=C1C(Cl)=C(N2CCOCC2)C(=O)N1CCc1ccccc1,12.6%
Cc1cc(=O)oc2cc(OC(C)C(=O)O)c(Cl)cc12 (stereo not drawn),1.1%
CCOC(=O)c1[nH]c2ccc(F)cc2c1NC(=O)C1=COCCO1,-13.7%
Cc1c(-c2ccco2)[n+](=O)c2c(n1[O-])CCC2,-4.9%
N#CCCn1c(=O)c(-c2cccc(C#N)c2)nc2cnc(Oc3cccc(Cl)c3)nc21,1.9%
COc1ccc(S(=O)(=O)CCC(=O)O)cc1,-15.1%
COc1ccc(NC(=O)C2C3C=CC(C3)C2C(=O)NCc2ccco2)cc1 (stereo not drawn),-11.3%
Cn1c(CSc2ncccn2)nnc1SCC(=O)N1CCCCC1,-1.6%
Cc1ccc(N(CC(O)CN2CCOCC2)S(=O)(=O)c2ccc3ccccc3c2)cc1 (stereo not drawn),132.1%
NS(=O)(=O)c1ccc(CNC(=O)NC2(c3ccccc3)CC2)cc1,-3.0%
CCCOC(=O)c1ccc(Oc2c(-c3ccc(OCC)cc3O)n[nH]c2C)cc1,4.6%
CC(C)CN=C(N)N=C(N)N,-11.3%[5.75 µM]
CCC(C)C1C(C#N)=C(N)OC2=C1C(=O)CC(C)(C)C2 (stereo not drawn),-19.1%
CCC(Sc1nc2cc(OC)c(OC)cc2c2nc(C)nn12)C(=O)NCc1ccco1 (stereo not drawn),63.4%
CC(C)(C)CNCCO,0.1%[5.75 µM]
CN[C@@H](c1ccncc1)[C@@H](NC)c1ccncc1,10.0%[5.75 µM]
COc1ccccc1Nc1nc(C2(C)CCC(=O)O2)cs1 (stereo not drawn),6.0%
Oc1c(Cl)c(Cl)cc(Cl)c1Cl,-18.3%
COc1cccc(C2=NOC(C(=O)Nc3cc(C)nn3-c3ccccc3)C2)c1OC (stereo not drawn),3.98µM*[single pt active]
CC(C)(C)Cn1nc(-c2ccc(Cl)cc2)c2c(N)ncnc21,7.2%
C=CCn1c(=O)c2ccccc2n2c(SCC(=O)c3ccccc3)nnc12,19.6%
CCCC(c1nnnn1Cc1ccc(OC)cc1)N1CCN(c2ccccc2)CC1 (stereo not drawn),28.8%
CCOC(=O)CSc1cccc2cccnc12,8.6%
Cc1cc(=O)[nH]c(SC/C=C/c2ccccc2)n1,-8.9%
CN(C)c1ccc(-c2cncnc2N(C)Cc2ccco2)cc1,37.2%
COc1ccc(NS(=O)(=O)c2cc(C(=O)O)ccc2C)cc1,-16.9%
COC(=O)Cn1c(=O)cnc2ccccc21,-3.5%
N#Cc1c(/N=C/c2ccco2)sc2c1CCCCC2,-1.0%
CCOc1ccc(NC(=O)CSc2nc3c(c(=O)n2C)SC(C)C3)cc1 (stereo not drawn),23.5%
Cc1ocnc1C(=O)Nc1ccc(Cl)cc1,-4.9%
CC(C)(C)OC(=O)N1CCC[C@H]1c1nnc(SCc2c(Cl)cccc2Cl)o1,77.9%
Cc1nnc(SCC(=O)NCc2ccc(Cl)cc2)[nH]c1=O,-6.7%
CC12C(=O)N(CCC(=O)O)C(=O)C1C1C=CC2C1 (stereo not drawn),-10.2%
Cc1ccc(C(=O)NC(C)(COc2nonc2C)COc2nonc2C)cc1,0.7%
O=C(NC1CCCC1)c1ccc(CS(=O)(=O)c2cccc(C(F)(F)F)c2)o1,37.7%
CC1Cc2nc(SCC(=O)NC3CCCCC3)n(C)c(=O)c2S1 (stereo not drawn),10.7%
Cc1cnc(CNc2ncncc2-c2cccc(C#N)c2)cn1,4.0%
COc1ccc(NC(=O)c2cc(C)on2)cc1OC,-0.4%
CCn1c(SCC(=O)NCc2ccco2)nnc1C(C)C,16.0%
CCCCC(CC)COC(=O)c1ccc(N(C)C)cc1 (stereo not drawn),2.0%
C=CC(C)(O)CCCC(C)CCCC(C)CCCC(C)C (stereo not drawn),1.4%
CCCCCCn1c(CN2CCN(CCO)CC2)nc2c1c(=O)n(C)c(=O)n2C,30.5%
O=C(Cn1nc(C(F)(F)F)c2c1CCCC2)NC1CCCC1,4.6%
COC(=O)c1cccc(NC(=O)CN2CCC(NC(=O)c3cc(OC)c(OC)c(OC)c3)CC2)c1,122.5%
Cc1ccc(CS(=O)(=O)CCC(=O)NCCCN2CCCC2)cc1,-10.4%
CNCCc1ccccn1,-11.6%[12.8 µM]
C=CCN1CC(c2nc3ccccc3n2Cc2ccccc2)CC1=O (stereo not drawn),52.9%
O=C(Nc1cccc(Cl)c1)Nc1nccs1,u
CCOc1ccccc1NC(=O)CSc1nnc(Cc2cccn2C)n1-c1ccc(F)cc1,107.4%
COc1ccc(NC(=O)c2oc3ccccc3c2C)c(OC)c1,6.4%
CN(C)CCCN1C(=O)C(=O)/C(=C(/O)c2ccncc2)C1c1cccc(Br)c1 (stereo not drawn),-1.4%
O=C(Cn1cccc1C(=O)c1ccccc1)NCc1cccs1,8.0%
COC(=O)C(NC(=O)c1ccco1)(Nc1nc(C2CC2)cs1)C(F)(F)F (stereo not drawn),17.9%
O=C(c1ccco1)N1CCN(C(=O)c2cccc3c2C(=O)N(Cc2cccnc2)C3)CC1,5.2%
Cc1cc2c(c(=O)n1CCN(C)C)C(c1ccc(Br)cc1)C(C#N)=C(N)O2 (stereo not drawn),12.4%
O=C(CNS(=O)(=O)c1cccc2nsnc12)NC1CCCCC1,-0.1%
Cc1cccc(-n2nnc(C(=O)NCc3ccccc3)c2N)c1,-4.1%
O=C(CCCOc1ccccc1)N1CCCc2ccccc21,37.3%
CN1CC2(C(=O)c3ccccc3)CN(C)CC(C(=O)c3ccccc3)(C1)C2,12.7%
CCCn1c(CCC(=O)O)ccc1-c1cccs1,26.2%
# Next part:
SMILES,AmpC inh no det
Cc1cc(C)c(NC(=O)C2CSCCS2)c(C)c1 (stereo not drawn),-1.6%
COc1ccc(OC)c(-n2cnc3cc(C(=O)NCCCN4CCOCC4)ccc32)c1,60.2%
COC(=O)c1cc(Nc2cc(C)nc3ncnn23)cc(C(=O)OC)c1,-4.5%
COc1ccc(CNC(=O)c2cccs2)cc1,-13.0%
CCOc1ccccc1NC(=O)C1=C(C)NC(=O)NC1c1cccc(OC)c1OC (stereo not drawn),25.5%
Cc1ccc2cc(C)c(SCC#N)nc2c1,-0.4%
O=C1CCC(=O)O1,3.4%
COc1nc(-c2ccccc2)ccc1-c1noc(-c2cccnc2)n1,89.9%
COc1ccc(N2CCN(c3oc(-c4ccc(OC)c(OC)c4)nc3C#N)CC2)cc1,103.5%
CCOC(=O)c1c(C)nc(-c2ccccc2)nc1N,4.1%
CN(C)c1ncc2nc(-c3ccc(Cl)cc3)c(=O)n(C3CC3)c2n1,-1.2%
CCCCn1c(O)c(C(C)=Nc2cccc(C(=O)O)c2)c(=O)[nH]c1=O,-11.1%
Cc1nn(-c2ccccc2)c(N2CCCC2)c1/C=N/n1cnc2scc(-c3ccccc3)c2c1=O,72.4%
COc1ccccc1CNc1ccc(N2CCCCC2)cc1,12.1%
CCOc1cc(NC(=O)c2ccco2)c(OCC)cc1NC(=O)Cc1ccc(OC)c(OC)c1,124.3%
CC(C)NC(=O)CSc1nnc(-c2ccc(S(=O)(=O)N3CCCC3)cc2)n1CC1CCCO1 (stereo not drawn),38.6%
CN(C)c1ccc(NC(=O)Nc2ccc3snnc3c2)cc1,-16.4%
O=C1c2ccccc2C(Nc2ccc3c(c2)OCCO3)N1Cc1ccc2c(c1)OCO2 (stereo not drawn),3.98µM*[single pt active]
O=C(CCCN1CCC(O)(c2ccc(Cl)cc2)CC1)c1ccc(F)cc1,6.5%
C=CCOC(=O)C1=C(C)N(C)C(=O)NC1c1cc2c(cc1Br)OCO2 (stereo not drawn),56.2%
Cc1nc2nc(SCC(=O)N3CCOCC3)nn2c(C)c1Cc1c(F)cccc1Cl,80.4%
CC1(C)CC(=O)c2sc(NC(=O)CN3CCCCC3)nc2C1,3.0%
CCCCn1c(=O)[nH]c(=O)c2c1nc(COc1ccc(C#N)cc1)n2CCC,1.4%
N=C1C(c2nc3ccccc3c(=O)[nH]2)=C(O)CN1CCO,-3.1%
O=C(NCc1cccs1)C1CCC(CNS(=O)(=O)c2ccc(Br)s2)CC1 (stereo not drawn),-3.0%
CCC(c1nnnn1C(C)(C)C)N1CCN(c2cc(Cl)ccc2C)CC1 (stereo not drawn),64.9%
COc1ccccc1C(=O)Nc1ccccc1N1CCN(S(C)(=O)=O)CC1,52.5%
CC(C(=O)NC1=NCCS1)(C(F)(F)F)C(F)(F)F,81.8%
N#Cc1nc(-c2ccccc2)oc1N1CCCCC1,10.0%
CC(=O)c1cccc(NC(=O)N2CCC(c3nnc(SCC(N)=O)n3C)CC2)c1,-5.3%

# An excerpt of these results, as tab-separated lines.
Compound	AmpC inh no det
C=CCn1c(COc2ccc(Cl)cc2)nnc1SCC(=O)NCC(=O)OCC	68.0%
CN(C(=O)COC(=O)c1nc(-c2ccccc2)n(-c2ccccc2)n1)C1CCS(=O)(=O)C1 (stereo not drawn)	34.8%
CCOC(=O)C1C(=O)CC(C)(O)C(C(=O)OCC)C1c1cccs1 (stereo not drawn)	13.8%

# More structures
SMILES,AmpC inh no det
COc1ccccc1CNS(=O)(=O)c1cc(C)ccc1OC,27.1%
COc1cc2ccccc2cc1C(=O)OCC(=O)N1CCOCC1,26.9%
CC(=O)NC(C)c1ccc(Cl)c(Cl)c1 (stereo not drawn),6.5%
CC(C)[C@@H](CC(=O)N[C@@H]1CCNC[C@H]1C(=O)N[C@H](CC(=O)N[C@@H](CCC(=O)O)CC(=O)O)Cc1c[nH]c2ccccc12)NC(=O)C[C@H](Cc1ccccc1)NC(=O)[C@@H]1CCCC[C@H]1N,125.5%
CCOc1cc2[nH]c(=O)n(CCCCC(=O)NC3CCCCC3)c(=O)c2cc1OCC,29.2%
COc1ccc(N(C(=O)COc2ccccc2)C2C=CS(=O)(=O)C2)cc1 (stereo not drawn),22.8%
O=C(O)C(Cl)(c1ccccc1)c1ccccc1,-9.4%[5.75 µM]
O=C(c1cccc(S(=O)(=O)N2CCCCC2)c1)N1CCOCC1,-1.5%

# Some of the compounds tested. The share of hits here may be higher or lower than overall.
